BJeLR viability: compounds reducing viability of BJeLR cells | BJeLR fibroblasts viability, CellTiterGlo ATP luminescence, 48 h; HRASV12, hTERT and SV40 LT/ST transformed | viability loss activity score, % (test concentration not listed) | 0.64% of 30,000 active | AID 2275; in the data active = viability loss activity score above about 50%; about a fifth of its hits are not listed in these tables;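 also: higher score means fewer live cells and less ATP luminescence; stock transfer was 50 or 100 nL into about 30 µL; 0% = vehicle wells and 100% = a reference killing control; one replicate is shown; the record names a cut of 85%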
A1 inh: A1 inhibition; MEF A1-2A-BIM cells, caspase-Glo luminescence, 3 h; percent of clofoctol signal, DMSO as zero; caspase activation, % (no concentration beside the values); 0.51% of 21,000 active; AID 2241;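 active = most replicate scores above 10, or exactly half above 10 with mean activity above 10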;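 also: effector caspase 3 and 7 activity cleaving a DEVD luciferin substrate; 50 nL library stock added to about 30 µL; numbers are from one replicate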
* hit, by the source's call; / = not tested or not shown. Only part of the results is shown, so the mix of outcomes need not match the whole.

SMILES	BJeLR viability	A1 inh
COc1ccc(COCC(O)CS(=O)(=O)c2ccc(OC)c(OC)c2)cc1 (centres undefined)	-2.4	-0.8
C[C@@H]1CN([C@@H](C)CO)C(=O)c2cccc(NC(=O)c3cnccn3)c2O[C@H]1CN(C)C(=O)Nc1ccc(C(F)(F)F)cc1	-2.5	/
COc1ccc(S(=O)(=O)N(C)C[C@H]2Oc3c(NS(C)(=O)=O)cccc3C(=O)N([C@H](C)CO)C[C@H]2C)cc1	-0.8	/
COc1ccc(CCn2c3c(c(=S)[nH]c2=O)CCC3)cc1OC	-0.5	0.2
CNC[C@H]1Oc2ccc(NS(=O)(=O)c3ccccc3)cc2C(=O)N([C@H](C)CO)C[C@@H]1C	8.5	0.1
O=C(C1CCN(S(=O)(=O)N2CCCCC2)CC1)N1CCCCC1	-2.5	-0.4
COc1cc(O)cc(C)c1C(=O)OC1C(CO)OC(n2ccc(=O)[nH]c2=O)C1OC(C)=O (centres undefined)	2.3	-0.7
Cc1ccc2c(c1)c1nc3ccccc3nc1n2CC(=O)OCc1ccccc1	2.4	0.6
C=C(CO)C1Cc2c(ccc3c(=O)c4c(oc23)COc2cc(OC)c(OC)cc2-4)O1 (centres undefined)	4.2	0.0
COc1ccc(S(=O)(=O)N(C)C[C@@H]2Oc3ccc(NC(=O)Nc4ccccc4)cc3C(=O)N([C@@H](C)CO)C[C@H]2C)cc1	3.7	0.7
C[C@@H]1CN([C@@H](C)CO)C(=O)c2cc(NC(=O)Nc3cccc4ccccc34)ccc2O[C@@H]1CN(C)Cc1ccc(C(F)(F)F)cc1	-3.3	-0.8
Cc1cc(C(=O)Nc2cccc3c2O[C@H](CN(C)C(=O)Nc2ccccc2)[C@H](C)CN([C@@H](C)CO)C3=O)n(C)n1	0.8	/
Cc1ccc(C2OCC3(CO2)COC(c2ccc(C)cc2)OC3)cc1 (centres undefined)	-5.2	-0.4
COc1ccc(CN(C)C[C@@H]2Oc3ccc(NS(=O)(=O)c4cccs4)cc3C(=O)N([C@@H](C)CO)C[C@@H]2C)cc1	0.8	0.6
C[C@H]1CN([C@@H](C)CO)C(=O)c2cc(NS(C)(=O)=O)ccc2O[C@@H]1CN(C)C(=O)Nc1ccc2c(c1)OCO2	0.5	-0.2
O=C(c1ccc(F)cc1)N1c2ccccc2C=Cc2ccccc21	-1.8	0.0
C[C@@H]1CN([C@@H](C)CO)C(=O)c2cccc(NC(=O)NC3CCCCC3)c2O[C@@H]1CN(C)Cc1ccncc1	-4.4	/
CN(C)CCC=C1c2ccccc2C=Cc2ccccc21	7.2	-0.4
CN(C)S(=O)(=O)Nc1cccc(N)c1	-2.0	0.0
C=CCn1nc2sc3ccccc3n2c(=O)c1=O	-5.1	-0.4
CCc1ccc2nc(N3CCC(C(=O)NCc4ccccc4)CC3)sc2c1	3.9	-1.7
C[C@@H]1CN([C@H](C)CO)C(=O)c2cc(NS(=O)(=O)c3ccc(F)cc3)ccc2O[C@@H]1CN(C)C(=O)Nc1ccccc1	-2.4	1.0
Cc1ccc(CC(=O)c2cccnc2)cc1	-0.6	0.5
NCCCCNS(=O)(=O)c1ccc2c(Cl)cccc2c1	0.5	0.4
C[C@H](CO)N1C[C@H](C)[C@@H](CN(C)C)Oc2ccc(NC(=O)CCC(F)(F)F)cc2C1=O	-1.2	1.2
C[C@H](CO)N1C[C@H](C)[C@H](CN(C)S(=O)(=O)c2ccccc2)Oc2c(NC(=O)NC3CCCCC3)cccc2C1=O	4.0	/
CSc1nc(C)cc(OCCO)n1	-1.1	0.2
C[C@@H]1CN([C@H](C)CO)C(=O)c2cccc(NS(=O)(=O)c3cccs3)c2O[C@@H]1CN(C)Cc1ccc(Oc2ccccc2)cc1	1.8	/
CC(C)NC(=O)N(C)C[C@@H]1Oc2ccc(NS(=O)(=O)c3cccs3)cc2C(=O)N([C@H](C)CO)C[C@H]1C	-3.9	-0.4
CC(C)NC(=O)N(C)C[C@H]1Oc2c(NS(=O)(=O)c3cccs3)cccc2C(=O)N([C@H](C)CO)C[C@@H]1C	0.9	/
N#CCCN(CC1CCCO1)C(=S)NC1CC2C=CC1C2 (centres undefined)	0.7	-0.1
COc1ccc(S(=O)(=O)N(C)C[C@@H]2Oc3ccc(NS(=O)(=O)c4c(C)noc4C)cc3C(=O)N([C@@H](C)CO)C[C@@H]2C)cc1	1.5	-0.4
C[C@H]1CN([C@@H](C)CO)C(=O)c2cc(NS(=O)(=O)c3ccc(Cl)cc3)ccc2O[C@@H]1CN(C)C(=O)Nc1cccc2ccccc12	-1.9	-0.4
c1ccc(C2C3=C(CCCC3)SC3=C2CCCC3)cc1	-1.3	0.3
CC(=O)Oc1ccc(OC(C)=O)c(S(=O)(=O)c2ccc(C)c(C)c2)c1	-1.2	-0.1
CCOC(=O)c1nc(Nc2cccc(C)c2C)c2ccccc2n1	-3.0	/
COc1cc(/C=C/C(=O)NCCSc2c[nH]c3ccccc23)cc(OC)c1OC	-2.0	/
COC(=O)/C(=C/c1ccccc1)c1ccccc1	-9.9	1.6
COc1ccccc1CNC(=O)COc1ccccc1	3.5	-0.1
CSc1sc(C#N)c(C)c1C(=O)/C=C/N(C)C	-0.1	0.1
COC(=O)CNC(=O)c1ccc(Cl)cc1	3.1	-0.1
COc1ccc(S(=O)(=O)N(C)C[C@@H]2Oc3ccc(NS(=O)(=O)c4ccc(C)cc4)cc3C(=O)N([C@@H](C)CO)C[C@@H]2C)cc1	2.2	0.6
CN(Cc1ccccc1)c1sc(S(C)(=O)=O)nc1S(=O)(=O)c1ccc(Cl)cc1	-6.4	-0.1
Cc1nn(-c2ccccc2)c2sc(C(=O)NC(=S)NC3CCSC3=O)cc12 (centres undefined)	-6.1	-0.3
C[C@@H]1CN([C@H](C)CO)C(=O)c2cc(NC(=O)Nc3ccc(C(F)(F)F)cc3)ccc2O[C@@H]1CN(C)C(=O)Nc1ccccc1	-1.7	0.1

Looked up above.
For A1 inh, `COc1ccc(S(=O)(=O)N(C)C[C@@H]2Oc3ccc(NS(=O)(=O)c4c(C)noc4C)cc3C(=O)N([C@@H](C)CO)C[C@@H]2C)cc1` shows -0.4
For A1 inh, `Cc1nn(-c2ccccc2)c2sc(C(=O)NC(=S)NC3CCSC3=O)cc12` (centres undefined) shows -0.3

Carrying on:
SMILES	BJeLR viability	A1 inh
Cc1nc2c(c(C)nn2C(C)(C)C)c(C)c1CCC(=O)NCCCc1ccccc1	-1.4	-0.2
CN1CCN(CCN2C(=O)c3ccccc3Sc3cc(Cl)ccc3S2(=O)=O)CC1	1.0	1.5
CCSc1nnc2nc3c4ccccc4c4ccccc4c3nn12	-10.4	-0.3
CN(C)S(=O)(=O)N1CCC(Cc2ccccc2)CC1	-1.8	0.3
CC(Sc1ncnc2sc3c(c12)CCCC3)C(=O)O (centres undefined)	-1.0	1.9
C[C@H]1CN([C@@H](C)CO)C(=O)c2cc(NC(=O)Cc3ccccc3)ccc2O[C@H]1CN(C)C(=O)NC1CCCCC1	1.6	0.1
N#CCNC(=O)CN1C(=O)c2ccccc2C1=O	-0.7	0.7
C[C@@H]1CN([C@@H](C)CO)C(=O)c2cccc(NC(=O)c3cnccn3)c2O[C@@H]1CN(C)C(=O)Nc1ccc(C(F)(F)F)cc1	-3.6	/
C[C@H]1CN([C@@H](C)CO)C(=O)c2cccc(NS(=O)(=O)c3cccs3)c2O[C@@H]1CN(C)C(=O)Nc1ccc(C(F)(F)F)cc1	2.0	/
COC(=O)c1ccc(NC(=O)CC2Sc3ccc(C(F)(F)F)cc3NC2=O)cc1 (centres undefined)	1.6	0.8
O=C(CCc1cn(Cc2ccccc2)c2ccccc12)NCCc1ccc(Cl)cc1	1.5	-0.7
NC(=O)C1CCN(C(=O)Cn2ncc3c4ccccc4n(Cc4ccc(F)cc4)c3c2=O)CC1	-2.4	0.4
COc1cc2ncnc(Nc3ccc(OCc4ccccc4)cc3)c2cc1OC	4.9	2.4
C[C@@H]1CN([C@H](C)CO)C(=O)c2cc(NC(=O)C3CC3)ccc2O[C@@H]1CN(C)C(=O)Nc1ccc(C(F)(F)F)cc1	-0.7	0.0
CC(C)(C)c1ccc(-c2nnc(-c3ccccc3NC(=O)/C=C\C(=O)O)o2)cc1	-5.3	1.5

2 entries drawn at random from the list so far:
SMILES	BJeLR viability	A1 inh
CC(=O)Oc1ccc(OC(C)=O)c(S(=O)(=O)c2ccc(C)c(C)c2)c1	-1.2	-0.1
Cc1ccc2c(c1)c1nc3ccccc3nc1n2CC(=O)OCc1ccccc1	2.4	0.6

Remaining list, next part:
SMILES	BJeLR viability	A1 inh
COc1ccc(CN(C)C[C@@H]2Oc3c(NS(=O)(=O)c4cn(C)cn4)cccc3C(=O)N([C@H](C)CO)C[C@H]2C)cc1	-0.7	/
C[C@H]1CN([C@@H](C)CO)C(=O)c2cccc(NC(=O)C3CCOCC3)c2O[C@@H]1CN(C)CC1CC1	1.3	/
COc1ccc(CN(C)C[C@H]2Oc3ccc(NC(=O)Nc4ccc(F)cc4)cc3C(=O)N([C@H](C)CO)C[C@@H]2C)cc1	-0.2	0.9
C[C@H]1CN([C@@H](C)CO)C(=O)c2cc(NC(=O)Nc3ccc4c(c3)OCO4)ccc2O[C@@H]1CN(C)C(=O)NC1CCCCC1	-0.4	-0.6
CCc1ccc(NC(=O)CSc2nc3ccccc3c(=O)n2CCCN2CCC(C)CC2)cc1	9.6	2.3
C[C@@H]1CN([C@@H](C)CO)C(=O)c2cccc(NS(=O)(=O)c3ccccc3)c2O[C@@H]1CN(C)Cc1ccc(-c2ccccc2)cc1	3.7	/
C[C@H]1CN([C@@H](C)CO)C(=O)c2cc(NC(=O)Nc3ccc(F)cc3)ccc2O[C@@H]1CN(C)C(=O)Nc1ccc(F)cc1	1.8	-0.9
CC(=O)OC[C@]12[C@H](OC(C)=O)[C@H](OC(=O)c3ccccc3)[C@@H]3[C@@H](OC(C)=O)[C@]1(OC3(C)C)[C@H](C)C[C@H](OC(C)=O)[C@@H]2OC(C)=O	-15.3	0.2
CCOc1ccc(NC(=O)c2cn(CC(C)C)c(=O)c3c2c2ccccc2n3C)cc1	4.6	/
Cc1noc(C)c1NC(=O)N(C)C[C@H]1Oc2c(NS(=O)(=O)c3ccc(F)cc3)cccc2C(=O)N([C@@H](C)CO)C[C@@H]1C	-2.3	/
C=CC(C)(C)c1cc2cc3ccoc3cc2oc1=O	-5.2	-0.4
CC(C)(C)c1cc(/C=C(\C#N)C(N)=S)cc(C(C)(C)C)c1O	-2.8	-0.9
CCN1C(=O)/C(=C2\C=Cc3ccccc3N2CC)N(C)C1=S	/	-0.7
O=C(NCc1cn2ccccc2n1)c1cccc(C(F)(F)F)c1	3.5	-0.3
C[C@H](CO)N1C[C@H](C)[C@H](CN(C)S(C)(=O)=O)Oc2ccc(NS(=O)(=O)c3ccc(F)cc3)cc2C1=O	0.0	-0.2

Some of the entries so far, as labelled records.
C[C@@H]1CN([C@@H](C)CO)C(=O)c2cccc(NS(=O)(=O)c3ccccc3)c2O[C@@H]1CN(C)Cc1ccc(-c2ccccc2)cc1
  BJeLR viability: 3.7
  A1 inh: /

C=CC(C)(C)c1cc2cc3ccoc3cc2oc1=O
  BJeLR viability: -5.2
  A1 inh: -0.4

CCc1ccc(NC(=O)CSc2nc3ccccc3c(=O)n2CCCN2CCC(C)CC2)cc1
  BJeLR viability: 9.6
  A1 inh: 2.3

COc1ccc(CN(C)C[C@@H]2Oc3c(NS(=O)(=O)c4cn(C)cn4)cccc3C(=O)N([C@H](C)CO)C[C@H]2C)cc1
  BJeLR viability: -0.7
  A1 inh: /

Carrying on.
SMILES	BJeLR viability	A1 inh
C[C@H](CO)N1C[C@H](C)[C@H](CN(C)S(=O)(=O)c2ccc(Cl)cc2)Oc2c(NS(=O)(=O)c3cn(C)cn3)cccc2C1=O	0.8	/
C[C@@H]1CN([C@H](C)CO)C(=O)c2cccc(NS(C)(=O)=O)c2O[C@H]1CN(C)C(=O)Nc1ccc(F)cc1	-0.9	/
COc1cc(N)c(Cl)cc1C(=O)NC1CCN(Cc2ccccc2)CC1	4.8	0.0
Cc1noc(C)c1NC(=O)N(C)C[C@@H]1Oc2ccc(N(C)C)cc2C(=O)N([C@@H](C)CO)C[C@@H]1C	2.9	0.3
CC1(C)CC(CCC(=O)NC(=S)Nc2ccccc2Cl)C(=O)O1 (centres undefined)	1.0	-0.2
C[C@H]1CN([C@@H](C)CO)C(=O)c2cc(NS(=O)(=O)c3ccc(Cl)cc3)ccc2O[C@H]1CN(C)C(=O)Nc1ccccc1	3.7	0.5
CC1(C)CC(=O)C2=C(C1)Nc1ccccc1N(C(=O)c1ccccc1)C2c1ccccc1 (centres undefined)	-0.9	1.1
CC(C)CCNC(=O)c1nnc(Cc2ccc(Cl)cc2)o1	-3.1	/
COc1ccc(S(=O)(=O)Nc2cccc3c2O[C@@H](CN(C)Cc2ccccc2)[C@@H](C)CN([C@@H](C)CO)C3=O)cc1	-5.1	/
COc1ccc(/C=C2\Oc3ccccc3N(CC(=O)NC(C)c3ccccc3)C2=O)cc1 (centres undefined)	13.2	/
O=c1[nH]c2cc(C(F)(F)F)ccc2n1-c1cc(C(F)(F)F)ccc1O	5.4	-0.1
O=C(Nc1cscc1S(=O)(=O)c1ccccc1)c1ccccc1Cl	1.3	1.1
CCc1ccc2[nH]c(C(=O)NC(C)COC)cc2c1 (centres undefined)	2.4	-0.5
C[C@@H]1CN([C@H](C)CO)C(=O)c2cccc(NC(=O)c3cnccn3)c2O[C@H]1CN(C)C(=O)Nc1ccc(C(F)(F)F)cc1	-1.3	/
C[C@H]1CN([C@@H](C)CO)C(=O)c2cc(N(C)C)ccc2O[C@H]1CN(C)C(=O)Nc1ccc2c(c1)OCO2	-3.8	-0.9
N/C(=N\O)c1cn(CCOc2ccccc2Cl)c2ccccc12	5.9	/
O=C(NCC1(c2ccccc2)CCOCC1)c1ccc(Br)cc1	3.8	-0.2

Compound activity deposited in PubChem by Broad Institute.
